Rango complex inh – Rango-importin beta binding inhibition; Q14974; Rango CFP/YFP FRET sensor + importin beta, 45 min; Potency, µM (series often up to 92.2 µM), inactives show at the highest dose inhibition of complex formation; hit rate 0.031% among 340,000; active = rising FRET ratio curve, often small or poorly fitted; inconclusive = mostly compound fluorescence or quenching in the first reads; inactive = flat curves in all reads;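 note: potency is the fitted concentration of half-maximal effect; 0% = DMSO wells and 100% = buffer wells lacking importin beta; nearly all actives have a fitted effect of over 15% in size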
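FRET biosensor (snurportin 1 IBB flanked by EYFP and cerulean), 50 nM, with compound 5 min, then 0.125 microM importin beta in PBS, 1 mM DTT, 0.02% Tween-20, 0.1% BSA. CFP/YFP ratio read after 45 min at room temperature; pre-read flags interference.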
Rango dissoc inh – prevents RanGTP from dissociating the Rango-importin beta complex; Biochemical FRET Rango-importin beta, RanGTP-induced dissociation; Potency, µM (top dose mostly 46.1 µM), without a hit: at the highest dose activity change, negative = inhibition; hit rate 0.071% among 340,000; AID 540253; active means falling FRET ratio curve, often poorly fitted, with flat reads before Ran was added; inconclusive means other falling curves, or compound fluorescence or quenching; inactive means flat or rising ratio curve;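 note: potency is the fitted concentration of half-maximal effect; % of control where 0% means no effect; nearly all actives have a fitted effect of over 45% in size; -100% = wells without RanGTP and RCC1; the record marks most hits as doubtful in a second field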
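Rango (0.1 uM)–importin beta (0.25 uM) complex; RanGTP-RCC1 trigger; 45 min RT; CFP/YFP FRET read.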
GLA inh pH 4.5 – alpha-galactosidase A (human) inhibition, pH 4.5. purified enzyme, 4-MU-alpha-Gal fluorescence, pH 4.5. activity change, negative = inhibition, % at 105 µM. 230,000 tested, under 10 active; inconclusive = small, poorly fitted or top-dose-only inhibition, or a rising curve; inactive = flat fitted curve, though single readings scatter; no compound was filed as active;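 note: 0% = full activity with enzyme and -100% = basal without enzyme; dose as in the result columns while the protocol names 77 µM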
Target sequence (P06280 whole entry, looked up): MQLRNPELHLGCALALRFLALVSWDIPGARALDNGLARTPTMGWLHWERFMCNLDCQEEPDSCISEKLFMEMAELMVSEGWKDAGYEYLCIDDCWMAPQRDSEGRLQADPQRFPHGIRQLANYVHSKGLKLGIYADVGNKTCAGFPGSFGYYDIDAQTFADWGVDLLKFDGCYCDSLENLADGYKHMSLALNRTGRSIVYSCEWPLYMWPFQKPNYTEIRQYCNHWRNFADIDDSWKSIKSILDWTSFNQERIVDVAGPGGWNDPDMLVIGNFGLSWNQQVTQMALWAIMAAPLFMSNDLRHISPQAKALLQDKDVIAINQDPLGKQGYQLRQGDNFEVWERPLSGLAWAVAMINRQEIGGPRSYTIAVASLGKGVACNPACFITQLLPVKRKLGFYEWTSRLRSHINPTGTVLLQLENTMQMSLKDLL
miR-21 FLuc – miR-21 reporter, rising signal; HeLa miR-21 FLuc reporter, luciferase, 48 h; Potency, µM (series often up to 38.3 µM), for inactives: top-dose reporter change, positive = more light; 340,000 tested, under 10 active; AID 2288; active = well fitted rising curve with a large enough effect; inconclusive = small, poorly fitted or top-dose-only effect; inactive = no such curve, though single readings can be large or run the other way;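 note: % of control where 0% means no effect; miR-21 action dims this reporter so a rising signal means less miR-21 action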
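Luminescence from a firefly luciferase reporter carrying a miR-21 binding site downstream, stably expressed under a CMV promoter in HeLa cells that make miR-21 endogenously, reports miRNA modulation after 48 h compound exposure up to approximately 40uM final.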
The depositor's hits bear a star; ? = inconclusive; · = no result given; & = joins results of further samples.

No.	SMILES	Rango complex inh	Rango dissoc inh	GLA inh pH 4.5	miR-21 FLuc
1	NC(=O)c1ccc(NC(=O)COC(=O)C2(c3ccccc3F)CCCC2)cc1	5.8%	5.3%	-5.6	10.0%
2	CCCCn1c(N)c(N(CC(C)C)C(=O)c2ccc(OCc3c(C)noc3C)cc2)c(=O)[nH]c1=O	6.1%	18.6%	·	·
3	C=C1CSc2nc(=O)c3c4c(sc3n21)CCCC4	?	-8.5%	4.6	-7.1%
4	CC(C)N1CCN(C(=O)c2cccc(Cl)c2)CC1	2.3%	6.1%	·	0.8%
5	CCc1ccc(-n2c(SCC(=O)N3Cc4ccccc4CC3C(=O)O)nnc2-c2ccncc2)cc1 (stereo not drawn)	-0.9%	-0.3%	-0.7	-2.1%
6	CC(C)(C)C(=O)O/N=C(\N)c1ccc(Oc2cc(Cl)cc(Cl)c2)c([N+](=O)[O-])c1	2.4%	19.0%	-1.1	-0.5%
7	O=C(CS(=O)(=O)c1ccccc1)Nc1ccc(Cl)cn1	0.4%	-1.8%	·	-12.4%
8	O=C(Nc1ccc(Cl)cc1)Nc1ccc(N2CCC(C(F)(F)F)CC2)nc1	0.3%	20.2%	1.6	-7.2%
9	O=C(CCN1C(=O)/C(=C\c2ccccc2)SC1=S)N1CCCCC1	-1.3%	-19.2%	·	-0.2%
10	Cc1cc(C(=O)N/N=C/c2cc(Cl)cc([N+](=O)[O-])c2O)n[nH]1	-2.0%	-4.6%	-1.9	6.5%
11	Cc1ccc(/C(O)=C/c2nc3cc(C)ccc3oc2=O)cc1	-0.9%	9.3%	-5.2	-25.9%
12	Cc1occc1C(=O)Nc1cccc(C(=O)NCc2ccccc2)c1	-5.5%	1.1%	2.2	0.2%
13	O=C(OCc1nc2ccccc2s1)[C@@H]1CCCN1S(=O)(=O)c1ccccc1F	·	·	-7.5	-17.7%
14	CN1C(=O)COc2ccc(C(=O)c3oc4ccccc4c3-c3cnc4c(c3)COc3ccccc3-4)cc21	·	·	-8.1	-1.9%
15	O=C(COC(=O)c1ccco1)NCC1CCCCC1	-4.2%	5.6%	·	·
16	COc1cc2c(cc1OC)-c1nnc(-c3cccs3)n1C1(CCCC1)C2	2.3%	2.0%	4.0	-5.6%
17	Cc1nn(CC2CC2)c(=O)n1-c1ccc(F)cc1	-0.3%	30.7%	-9.2	2.2%
18	O=C(NCCN1CCOCC1)c1cccnc1SCc1ccccc1Cl	-5.6%	11.8%	-10.4	-7.5%
19	O=C1CC(c2ccccc2)CC(O)=C1C=NCCCN1CCOCC1 (stereo not drawn)	-0.8%	16.6%	4.9	-3.0%
20	CC(=O)Nc1ccc(N/C=C2/CCCC2=O)cc1	?	-28.3%	-10.6	-0.1%
21	O=C(CSc1nc(-c2cccs2)cc(C(F)(F)F)n1)Nc1cc(OCC(F)(F)F)cc([N+](=O)[O-])c1	7.9%	-20.6%	-3.5	-0.6%
22	CCOC(=O)C1CCN(C(=O)C2CCN(S(=O)(=O)c3c(C)noc3C)CC2)CC1	3.4%	-10.2%	0.5	0.1%
23	O=C(CCCN1C(=O)c2ccccc2C1=O)NC1CCCCCC1	0.2%	-1.1%	3.9	0.3%
24	CC1(C)Nc2ccc(O)cc2-c2c1ssc2=S	7.8%	-10.9%	-7.7	-3.1%
25	COc1ccc(C(=O)N2[C@@H](C(C)C)COc3cc(Br)ccc3S2(=O)=O)cc1	0.4%	19.0%	·	·
26	CCOc1ccc(Br)cc1S(=O)(=O)NC1=NCCCCC1	-2.6%	1.2%	·	·
27	COc1cccc(/C=C/C(=O)N2CC(C)OC(C)C2)c1OC (stereo not drawn)	2.3%	-2.9%	·	1.6%
28	NNC(=O)C(=O)Nc1ccc(O)cc1	-0.9%	8.4%	2.3	10.6%
29	O=[N+]([O-])c1ccc(O)c(/C=N/n2c(-c3ccccc3)n[nH]c2=S)c1	-3.7%	-15.1%	·	0.0%
30	CC(C)Cc1cc(C(=O)Nc2ccc(Br)cc2)no1	4.4%	1.9%	-14.0	-36.5%
31	Cc1nn(-c2ccc(Cl)nn2)c(=O)c2ccccc12	3.3%	-14.5%	1.4	-36.6%
32	COc1cc(/C=C/C(=O)OC(C)C(=O)Nc2c(C)n(C)n(-c3ccccc3)c2=O)ccc1O (stereo not drawn)	?	23.1µM*	·	·
33	CCCCCc1cc(=O)oc2c(C(CCN3CCCCC3)c3ccc(OC)cc3)c(OC)cc(OC)c12 (stereo not drawn)	0.2%	16.4%	-4.9	?
34	O=c1c2ccccc2nc(-c2ccccc2Cl)n1O	-0.7%	-9.6%	-4.0	4.0%
35	COc1ccc2nc(NC(=O)c3cnccn3)sc2c1	-1.4%	-2.2%	-0.6	-32.9%
36	COc1ccc(-c2sc3ccc(N4CCOCC4)cc3c2C#Cc2ccsc2)cc1	?	0.2%	·	·
37	O=C(Cn1nnc(-c2ccc(S(=O)(=O)N3CCCC3)cc2)n1)Nc1ccccc1-n1cccc1	-0.2%	-8.0%	-8.8	2.9%
38	CN1C(=O)N(C)C2(c3ccccc3)NC(=O)NC12c1ccccc1 (stereo not drawn)	-4.3%	9.6%	8.5	-0.1%
39	O=C(COC(=O)c1ccc2ccccc2n1)Nc1ccccc1F	7.2%	-20.9%	·	·
40	Cc1ccc(/C=N/NC(=O)CNC(=O)c2ccc(S(=O)(=O)N(C)C)cc2)cc1	0.4%	-2.2%	-23.9	1.9%
41	O=C(Cn1ncc2c([nH]c3ccccc32)c1=O)NCCc1ccc(Cl)cc1	-0.5%	1.6%	·	0.1%
42	Cc1cc(C)cc(NC(=O)N2CCCC2C(=O)NCc2ccco2)c1 (stereo not drawn)	0.6%	-0.1%	-0.9	-1.7%
43	CCn1c2ccccc2c2cc(NC(=O)COC(=O)c3cc(OC)c(OC)cc3OC)ccc21	0.6%	-7.9%	?	-3.8%
44	CC(=O)Nc1ccc(S(=O)(=O)Nc2nc3n(n2)C(c2ccccc2)CC(=O)N3)cc1 (stereo not drawn)	10.7%	-5.9%	-1.3	-3.8%
45	Cc1ccc(NC(=O)c2cc3c(s2)CCCC3)cc1S(=O)(=O)Nc1ccccc1Cl	?	18.8%	-6.5	17.2%
46	Cc1ccc2oc(C(=O)N(Cc3ccncc3)CC3CCCO3)c(C)c2c1 (stereo not drawn)	-0.9%	0.3%	·	-42.5%
47	CCOc1ccc(C(=O)Nc2ccc(S(=O)(=O)Nc3nccc(C)n3)cc2)cc1OCC	-5.7%	1.3%	·	-19.3%
48	COc1cc(OC)nc(Oc2ccccc2C(=O)Oc2ccc(C)cc2)n1	-0.2%	-7.0%	-2.6	0.0%
49	Cc1c(S(=O)(=O)Nc2ccc3c(c2)OCCO3)c(=O)n(C)c(=O)n1C	3.3%	34.7%	-1.7	0.1%
50	O=C(CCc1nnc(-c2ccccc2)o1)NCc1cc(F)ccc1F	1.5%	-18.7%	5.1	-10.2%
51	CCC(=O)Nc1nc2n(n1)C(c1ccc(OC)cc1)C=C(c1ccccc1)N2 (stereo not drawn)	·	·	5.6	-8.5%
52	CC1CC(=O)C(C2c3ccccc3CCN2C(=O)CCl)C(=O)C1 (stereo not drawn)	3.9%	2.0%	-0.2	0.9%
53	Cn1c(N)c(C(=O)COC(=O)c2cccnc2Cl)c(=O)n(C)c1=O	-0.1%	?	-0.5	-6.1%
54	O=C(Cc1c(F)cccc1Cl)NCC1CCCO1 (stereo not drawn)	-0.2%	-11.3%	-5.0	-5.3%
55	CC(=O)c1ccc(OCc2cc(C(=O)NC(C)c3cnn(C)c3)no2)cc1 (stereo not drawn)	3.5%	2.2%	·	-42.2%
56	CCOCC(=O)NCc1ccc2c(c1)cc(C)n2C	?	-16.2%	·	-0.2%
57	NC1=C(c2ccc([N+](=O)[O-])cc2)C(=O)CO1	-0.2%	13.0%	-5.0	0.5%
58	CN1CCN(c2ccc(Cl)cc2NC(=O)c2cc(=O)[nH]c3ccccc23)CC1	-0.4%	1.6%	·	·
59	CN1CCN(C(=O)c2cc3c(ccc4ccccc43)oc2=O)CC1	?	?	?	-11.5%
60	COc1ccccc1-c1nnc(SCC(=O)Nc2ccc(N3CCOCC3)cc2)n1N	-0.1%	0.8%	·	·

Continued.
No.	SMILES	Rango complex inh	Rango dissoc inh	GLA inh pH 4.5	miR-21 FLuc
61	O=C(C1CCC(=O)N(C2CC2)C1)N1CCC(Oc2cccc(C(F)(F)F)c2)CC1 (stereo not drawn)	2.1%	-2.7%	·	-5.6%
62	CN(C1CCCCC1)S(=O)(=O)c1ccc(S(=O)(=O)N2CCCC2)cc1	-0.1%	34.6%	-7.0	3.0%
63	CC(=O)c1ccc(NC(=O)CSc2ccc3nnc(-c4cccnc4)n3n2)cc1	-2.3%	47.6%	1.1	-17.2%
64	N#Cc1c(N)nc2c(c1-c1ccc3c(c1)OCO3)CCc1ccccc1-2	-4.6%	5.0%	?	4.2%
65	CCOc1ccc2c(c1)sc1nc(C(=O)OC)cc(=O)n12	1.7%	-8.7%	·	·
66	CC(C)(C)c1ccc(C(=O)Nc2ccc(Oc3cccnc3)nc2)cc1	-0.3%	-7.9%	-4.7	22.4%
67	CNC(=O)c1ccc(Nc2nnc(-c3ccc(C)c(S(=O)(=O)NCC4CCCO4)c3)c3ccccc23)cc1 (stereo not drawn)	-3.3%	-14.9%	-20.2	2.8%
68	NC(=O)COc1ccccc1C(=O)O	-3.6%	-2.0%	0.1	-0.1%
69	O=C(C1CCC1)N(CCc1ccccc1)Cc1nc2ccccc2c(=O)[nH]1	-0.7%	-4.9%	-6.2	-11.5%
70	COc1ccc([C@@H]2CC=C(C(=O)O)[C@H](c3ccc(C)cc3)N2S(=O)(=O)c2ccc(C)cc2)cc1OC	4.5%	-11.6%	·	·
71	COc1cc2c(cc1OC)CN(c1ccc(F)cc1[N+](=O)[O-])CC2	1.1%	1.1%	·	-64.1%
72	O=S(=O)(c1ccccc1)N(CC1CO1)c1ccccc1 (stereo not drawn)	-2.8%	5.4%	2.6	-0.4%
73	O=C(Cn1cnc2c(cnn2-c2ccc(F)cc2)c1=O)OCc1ccccc1	2.0%	3.8%	-10.5	-2.6%
74	Clc1cnc2nc(SC/C=C/c3ccccc3)[nH]c2c1	-1.7%	-0.8%	-6.1	0.2%
75	CN1CCCN(S(=O)(=O)c2ccccc2)CC1	2.9%	9.2%	·	1.4%
76	Cc1cc(OCC(=O)NCC2CCC(C(=O)O)CC2)c2c(C)cc(=O)oc2c1 (stereo not drawn)	-0.3%	8.6%	·	1.4%
77	COc1ccc(N2CCN(c3nc(Nc4ccc(C)c(F)c4)nc(N4CCCC4)n3)CC2)cc1	2.5%	-8.8%	5.5	-0.9%
78	Cn1cc([N+](=O)[O-])c(C(=O)Nc2nc(-c3ccc(Cl)cc3)cs2)n1	0.1%	4.0%	-2.2	1.3%
79	CCCCCCCCNC(=S)NCCN1CCCCC1	0.2%	6.0%	-6.0	9.4%
80	CN1C(=O)CC(NNC(=O)c2ccc(Cl)cc2)C1=O (stereo not drawn)	2.6%	8.8%	-0.4	-4.6%
81	Cc1oc(C(C)(C)C)cc1C(=O)Nc1ccc(N2CCOCC2)cc1	-1.0%	5.0%	6.7	-3.5%
82	COc1ccc(CCCC(=O)N/N=C\c2cccs2)cc1	3.9%	-12.0%	-3.2	-5.9%
83	CC(=O)c1cccc(S(=O)(=O)NCC2CCCCC2)c1	0.3%	-0.7%	-21.8	-8.1%
84	Cc1cccc(OCC(=O)Nc2ccc(NC(=O)c3ccccc3)cc2)c1	0.4%	1.4%	·	-2.8%
85	O[C@@H]1[C@@H](O)C=C2CCN3Cc4cc5c(cc4[C@H]1C23)OCO5 (stereo partly drawn)	-0.2%	-0.6%	·	·
86	COc1cc(-c2nc3cnccn3c2Nc2c(C)cccc2C)ccc1O	?	?	-1.8	-14.4%
87	COc1ccc(NC(=O)CCN2C(=O)c3ccccc3C2=O)cc1	1.3%	2.2%	·	-8.5%
88	CCc1nn(CCCC(=O)NCc2ccccc2Br)c(=O)c2cc3occc3n12	2.4%	-4.8%	·	-5.1%&-25.2%
89	c1ccc(Cn2nnnc2C(c2cccs2)N2CCCCCC2)cc1 (stereo not drawn)	0.7%	18.7%	-14.2	-3.1%
90	Cc1onc(-c2ccccc2)c1C(=O)NCc1ccco1	-0.5%	0.8%	7.8	-1.7%

Screening results: PubChem, National Center for Advancing Translational Sciences (NCATS)

The list is partial; count on the stated rates, not on these rows.
